Screening data as filed in PubChem.
2A StopGo – High Throughput Screening for Foot and Mouth Disease Virus Antivirals; Potency, µM (doses to about 57.9 µM), for the others: top-dose signal change, negative = less light; actives 1.2% (n = 410,000); human cells with a luciferase reporter of 2A StopGo recoding; control for the full effect not named in the record; active = well fitted falling curve with a large enough effect; inconclusive = small, poorly fitted or top-dose-only effect; inactive = no such curve, though single readings can be large or run the other way; tested in HEK293T cells; note: % is set by controls: 0 for no effect and ±100 for the full control effect; nearly all actives have a fitted effect of over 45% in size; luciferase light after 4 h
SARS PLP yeast – qHTS of Yeast-based Assay for SARS-CoV PLP; S. cerevisiae expressing SARS-CoV PLpro, growth rescue; control for the full effect not named in the record; Potency, µM (titrated, usually from 32.9 µM), for the others: top-dose activity, positive = growth rescue; actives 0.19% (n = 330,000); AID 485353, 2010; active means well fitted rising curve with a large enough effect; inconclusive means small, poorly fitted or top-dose-only effect; inactive means no such curve, though single readings can be large or run the other way; note: 0% is about no effect; nearly all actives have a fitted effect of over 55% in size; growth read by luminescence after 48 h
LASV entry inh – qHTS for Inhibitors of binding or entry into cells for Lassa Virus. actives 1.2% (n = 300,000). AID 540256, 2011. Lassa virus pseudotype entry inhibition, cell reporter; control for the full effect not named in the record. Potency, µM (series often up to 37.9 µM), for inactives: at the top dose activity change, negative = inhibition, hits mostly inhibitors; active means well fitted inhibition curve with a large enough effect; inconclusive means small, poorly fitted or top-dose-only effect, or effect the other way; inactive means flat fitted curve, though single readings scatter; tested in HEK293 cells; note: % is set by controls: 0 for no effect and ±100 for the full control effect; nearly all actives have a fitted effect of over 50% in size; luciferase read-out
Cruzain inh noDet – qHTS Assay for Promiscuous and Specific Inhibitors of Cruzain (without detergent); Cruzipain (Trypanosoma cruzi), P25779; purified cruzain, Z-FR-AMC fluorescence, no detergent; Potency, µM, inactives show max response, negative = inhibition, most hits filed as inhibitors; actives 2.3% (n = 200,000); AID 1476, 2009;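 note: plate controls were enzyme without inhibitor for no effect and buffer without enzyme for full effect; nearly all actives have a fitted effect of over 40% in size; top concentration of the series not given in the record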
Target sequence (P25779 123-467 limits assumed): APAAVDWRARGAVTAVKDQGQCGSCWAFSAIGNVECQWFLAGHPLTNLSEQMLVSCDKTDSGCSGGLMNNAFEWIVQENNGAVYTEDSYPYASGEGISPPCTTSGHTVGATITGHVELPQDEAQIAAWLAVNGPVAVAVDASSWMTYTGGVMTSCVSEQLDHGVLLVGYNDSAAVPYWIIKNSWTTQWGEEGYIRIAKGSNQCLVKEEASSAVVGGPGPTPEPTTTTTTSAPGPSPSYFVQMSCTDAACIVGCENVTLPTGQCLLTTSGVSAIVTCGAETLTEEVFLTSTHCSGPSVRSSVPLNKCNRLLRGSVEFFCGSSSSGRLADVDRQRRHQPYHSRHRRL
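Purified cruzain at 1.5 nM, pre-incubated 15 min with compound at room temperature in 100 mM sodium acetate pH 5.5, 5 mM DTT, 0.00005% Triton X-100. Reaction started with 2 uM Z-FR-AMC; AMC fluorescence increase over 60 s gives rate.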
RE007 growth inh – qHTS Assay for Inhibitors of the HIV-1 protein Vpr. actives 0.21% (n = 360,000). S. pombe RE007 Vpr strain, BacTiter-Glo ATP luminescence, 24 h; control for the full effect not named in the record. Potency, µM (titrated, usually from 92.2 µM), for inactives: at the top dose activity change, negative = less growth; active = well fitted falling curve with a large enough effect; inconclusive = small, poorly fitted or top-dose-only effect; inactive = no such curve, though single readings can be large or run the other way;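 note: % is set by controls: 0 for no effect and ±100 for the full control effect; nearly all actives have a fitted effect of over 50% in size; the assay follows cell death caused by Vpr and the record does not say whether a fall means rescue or toxicity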
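Fission yeast strain RE007, carrying one chromosomally integrated HIV-1 vpr copy, was seeded at OD 0.01 in PMG+AL medium with 23 nL pinned compound. After 24 h at 30 °C and 99% humidity, viability was read by BacTiter-Glo luminescence.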
NS1 inh – qHTS Assay for Inhibitors of Influenza NS1 Protein Function; S. cerevisiae slowed by influenza A NS1, growth recovery by OD600; Potency, µM (highest dose often 46.1 µM), for inactives: top-dose activity, positive = more growth; actives 0.4% (n = 270,000); AID 2326, 2010; active means well fitted rising curve with a large enough effect; inconclusive means small, poorly fitted or top-dose-only effect; inactive means no such curve, though single readings can be large or run the other way; note: nearly all actives have a fitted effect of over 50% in size
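A cell-based growth assay was used: compounds that relieve NS1-induced slow growth of budding yeast raise OD600. Assay medium was yeast nitrogen base with ammonium sulphate and -URA supplement, pH 6.0, with 2% galactose.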
Cruzain inh Det – qHTS Assay for Promiscuous and Specific Inhibitors of Cruzain (with detergent); Potency, µM, inactives show max response, negative = inhibition, hits mostly inhibitors; purified cruzain, Z-FR-AMC fluorescence, 0.01% Triton; actives 0.43% (n = 200,000);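 note: plate controls were neutral wells for no effect and buffer without enzyme for full effect; nearly all actives have a fitted effect of over 40% in size; top concentration of the series not given in the record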
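Cysteine protease activity tested under reducing, mildly acidic conditions (100 mM sodium acetate pH 5.5, 5 mM DTT) plus 0.01% Triton X-100. Cruzain 1.5 nM; substrate Z-FR-AMC 2 uM; 15 min compound preincubation at room temperature.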
MARV entry inh – qHTS for inhibitors of binding or entry into cells for Marburg Virus; Marburg virus pseudotyped entry inhibition, cell reporter; control for the full effect not named in the record; about a third of the inactives were read at about 46 µM; Potency, µM (top dose mostly 37.8 µM), for inactives: at the top dose activity change, negative = inhibition, most hits filed as inhibitors; actives 1.8% (n = 300,000); active = well fitted inhibition curve with a large enough effect; inconclusive = small, poorly fitted or top-dose-only effect, or effect the other way; inactive = flat fitted curve, though single readings scatter; tested in HEK293 cells; about a fifth of its hits are not listed in these tables; note: % is set by controls: 0 for no effect and ±100 for the full control effect; luciferase read-out
Active calls of the source: *; u = inconclusive; x = not tested or not shown; & = joins results of further samples; [ ] = another dose, or the depositor's remark. Unless noted, calls come from the whole dose curve; as a rule, active = well fitted curve in the direction sought with a large enough effect; inconclusive = small, poorly fitted or top-dose-only effect, or another doubt; inactive = no such curve, though single readings can be large; an effect the other way counts as inactive or inconclusive. Potency is the fitted concentration of half-maximal effect.

SMILES | 2A StopGo | SARS PLP yeast | LASV entry inh | Cruzain inh noDet | RE007 growth inh | NS1 inh | Cruzain inh Det | MARV entry inh
CC(=O)N1CCN(c2ccc([N+](=O)[O-])c(-n3nc(C)cc3C)c2)CC1 | -11% | 5% | -3% | 8% | 6% | 0% | -6.8% | -2%
Cc1ccc(C2(c3noc(CN(C)Cc4cnn(C)c4)n3)CCCC2)cc1 | u | 1% | 0% | x | -17% | 5% | x | u
C/C(=N\NC(=O)c1ccncc1)c1cccc(NC(=O)c2ccc(C(C)(C)C)cc2)c1 | -1% | -12% | u | x | 20% | -107% | x | u
CCOc1ccc(NC(=O)C2CC(=O)N=C(N)S2)cc1 (stereo not given) | -23% | 16% | -17% | -2% | -2% | 14% | 1.0% | -4%
Cc1cc(C)c(C#N)c(SCC(=O)NN2CC(=O)N(c3ccccc3F)CC2=O)n1 | -13% | -11% | 0% | 8% | 2% | 12% | -1.3% | 11%
COc1ccccc1C(=O)NCCC(=O)NCC(c1ccc(F)cc1)N1CCOCC1 (stereo not given) | 8% | 1% | 0% | x | 7% | x | x | 6%
O=Cc1c(NC2CCCCC2)c2ccccc2[nH]c1=O | -9% | -3% | -2% | x | 4% | -48% | x | 1%
COc1ccccc1-n1cc(-c2ccc(Cl)cc2)[nH]c1=O | -12% | -22% | -1% | 9% | 5% | 4% | -14% | u
COc1ccccc1CNC(=O)COC(=O)c1cccnc1SCC(=O)NCc1ccccc1OC | 9% | 0% | 12% | x | 4% | x | x | -18%
Oc1c(C(c2ccc(Cl)cc2Cl)N2CCOCC2)sc2nc(-c3ccco3)nn12 (stereo not given) | -5% | x | u | u | x | x | -6.6% | x
CCCC(=O)NCC(c1ccc2c(c1)OCO2)N1CCOCC1 (stereo not given) | -5% | x | -13%[46.1 µM] | -2% | x | x | 0.1% | x
CCCC(C)NC(=O)c1ccc(F)cc1 (stereo not given) | 30%[activator] | 2% | 2% | 29% | 0% | -5% | 5.9% | 1%[46.1 µM]
CCCc1cc(=O)oc2cc3occ(C)c3cc12 | -20% | 2% | 1% | -20% | -5% | -32% | -0.5% | 0%
COCCNc1nc2sc3c(c2c(=O)n1Cc1ccco1)CCCCC3 | 16% | 17% | u | -13% | -15% | -5% | -7.9% | u
COCc1cc(=O)[nH]c(-c2ccc(C(F)(F)F)cc2)n1 | -5% | 0% | -4% | x | -7% | 0% | x | u
CSc1nc2c(c(=O)[nH]1)C(c1ccccc1Cl)CC(=O)N2 (stereo not given) | -14% | 7% | -8% | x | -8% | x | x | 1%
Fc1ccccc1Nc1nc(N2CCOCC2)nc(N2CCOCC2)n1 | -27% | 4% | x | x | -10% | -11% | x | x
N#C/C(=C\c1cccs1)C(=O)Nc1nccs1 | 0% | -1% | 21% | x | -11% | -37% | x | u
CCCSc1ncc(Cl)c(C(=O)Nc2sc3c(c2C(N)=O)CCCC3)n1 | -8% | x | 2%[46.1 µM] | 5% | x | x | -1.5% | 10%[46.1 µM]
Cc1cccc(-c2nnc(NC(=O)c3ccc(N4C(=O)CCC4=O)cc3)s2)c1 | -11% | -6% | 2% | u | -1% | 9% | 0.4% | -11%
Cc1ccc2c(c1)c1c(c(=O)n(-c3ccccc3)c(=O)n1CC(=O)NCC1CCCO1)n2C (stereo not given) | -14%&-11% | 0% | 15%[46.1 µM] | 2% | 0% | 3% | -0.8% | x
COc1ccc(NS(=O)(=O)c2cccc(C(=O)N3CCCCCC3)c2)cc1 | 19% | 4% | u | x | 11% | x | x | -6%
O=C(N/N=C/c1coc2ccccc2c1=O)c1cccc([N+](=O)[O-])c1 | 3% | 1% | 7% | x | -5% | -3% | x | 18%[46.1 µM]
CCC(C)(C(=O)NC1CCCCC1)N(C(=O)c1ccccn1)c1ccccc1 (stereo not given) | 10% | 7% | 5% | 11% | -4% | 2% | 1.3% | 10%
CCOC(=O)C1=C(C)OC(N)=C(C#N)C1c1ccsc1 (stereo not given) | -13% | 4% | -4% | 8% | -2% | 2% | 2.1% | 11%
CCC(C)(C)n1nnnc1C(c1ccc(C)cc1)N1CCN(Cc2cccnc2)CC1 (stereo not given) | -23% | 6% | 2% | 1% | 37% | 1% | 3.4% | u
Cc1c(C(=O)N(C)CCC#N)oc2ccc(S(=O)(=O)N3CC(C)CC(C)C3)cc12 (stereo not given) | u | 0% | x | x | -3% | -8% | x | x
Cc1ccc(NC(=O)C(=O)NCC2(c3ccccc3)CCCC2)cc1Cl | -15% | x | 13%[46.1 µM] | 0% | x | x | 1.5% | 8%[46.1 µM]
S=c1[nH]nc(-c2ccccc2)o1 | -4% | -1% | 14% | 2% | -12% | -44% | 2.9% | 3%
COc1cccc(CN(C)CC(=O)Nc2ccccc2C(C)C)c1 | u | 1% | -14% | x | -14% | x | x | u
CN(C)CCN(Cc1ccco1)C(=O)c1cc2c(s1)-c1ccccc1OC2 | 7% | x | x | u | x | x | u | u
COc1ccccc1N1CCN(C2CCCN(C(=O)CCn3cncn3)C2)CC1 (stereo not given) | -16% | 6% | 20% | x | -1% | 3% | x | 8%
Cc1cccc(-c2nc3c(c(SCC(=O)N(C)C)n2)CCCC3)c1 | -21% | -6% | -16% | u | -7% | -3% | -8.2% | u
Cc1ccc(C2(C)NC(=O)N(CC(=O)Nc3ccc4c(c3)OCO4)C2=O)cc1 (stereo not given) | -13% | 3% | 14% | 3% | -16% | 1% | 3.1% | 2%
CCC(=O)NNc1ccc(Br)cc1 | -9% | -5% | u | x | 73% | x | x | u
CC1=C(C(=O)Nc2ccccc2)C(c2ccco2)NC(=S)N1 (stereo not given) | 8% | -1% | u | -2% | 10% | -2% | -0.6% | 17%
CC(=O)Nc1ccc(S(=O)(=O)Nc2nnc(C(C)C)s2)cc1 | 5% | 0% | u | 2% | 12% | -1% | 0.4% | -16%
CCCc1c(C)nn(C(=O)/C(C#N)=N/Nc2ccccc2[N+](=O)[O-])c1C | -7% | -14% | 6%[46.1 µM] | x | -15% | x | x | 0%[46.1 µM]
O=C(C1CCC(=O)N(C2CC2)C1)N(CCO)Cc1ccccc1 (stereo not given) | 16% | -1% | 8%[46.1 µM] | x | -5% | 3% | x | 11%[46.1 µM]
O=C(O)CCc1nc2ccccc2n(CCc2ccccc2)c1=O | -13% | 3% | 11% | -12% | 10% | -2% | -1.6% | -2%
CC(=O)C1=C(O)C(=O)N(Cc2ccccc2)C1c1ccc(N(C)C)cc1 (stereo not given) | -7% | -5% | x | x | 23% | -2% | x | x
N#Cc1ccccc1S(=O)(=O)N1CCN(C(=O)c2cccc(S(=O)(=O)N3CCCC3)c2)CC1 | 1% | x | -1% | x | -10% | x | x | u
CCOc1ccc(NC(=O)c2nccnc2CO)cc1 | 40%[activator] | 2% | -14% | -11% | 1% | -11% | 3.8% | -2%
Cc1ccc(-n2c(SCC(=O)OC(C)C)nnc2-c2ccncc2)cc1 | -15% | 22% | -11% | -8% | -6% | -9% | 1.4% | u
Cc1ccc(OCCSc2nc3ccccc3n2CC(=O)O)cc1 | -14% | 13% | 2% | x | -4% | 5% | x | -23%
Cc1ccc(C)c(Cn2c3ccccc3c3cnn(CC(=O)NCCCN4CCCCC4)c(=O)c32)c1 | -22% | -1% | x | x | 1% | 3% | x | x
O=C(NC1CCCCC1)c1ccc2c(c1)N(Cc1ccccc1)C(=O)c1ccccc1S2 | -8% | x | -21%[46.1 µM] | -6% | x | x | 1.4% | x
CC(=O)c1ccc(NC(=S)N2CCCC(CO)C2)cc1 (stereo not given) | 31%[activator] | 3% | 4% | -5% | 5% | 1% | -3.3% | -15%
COc1cccc(NC(=O)CN(C)C(=O)C(CCSC)NC(=O)c2ccco2)c1 (stereo not given) | 0% | -5% | 0% | x | 1% | x | x | -13%
CN(Cc1ccsc1)C(=O)CCc1nnc(Cc2c[nH]c3ccccc23)o1 | 14% | -1% | -5% | x | 0% | 0% | x | u
O=C(COC(=O)/C=C/c1ccc([N+](=O)[O-])cc1)NC(c1ccccc1)c1ccccc1 | -22% | 7% | -17% | u | 0% | 12% | -0.1% | -3%
O=C(Cn1nnc2ccccc21)c1ccccc1 | 36%[activator] | 4% | u | 2% | 2% | 5% | -2.0% | 37%
Nc1nnc(SCC(=O)Nc2ccccc2C(F)(F)F)s1 | -1% | x | 10%[46.1 µM] | -8% | x | x | -1.4% | u
O=C(COc1ccc(Cl)cc1)NNC(=O)CSc1nncs1 | -4% | 1% | -5% | x | 1% | x | x | 4%
COC(=O)c1sc2ccccc2c1NC(=O)c1ccc(S(=O)(=O)N2CCCC(C)C2)cc1 (stereo not given) | 1% | 8% | 3% | u | -27% | 17% | -3.7% | u
Cc1cc(N/N=C/c2ccc(Cl)cc2)nc(NCc2ccccc2)n1 | -14% | -25% | u | 0% | -23% | -14% | -14% | u
O=C(Nc1ccccc1)N1CCCC(c2nc(-c3ccc(F)cc3)no2)C1 (stereo not given) | -2% | -3% | 7% | 1% | -11% | -50% | 0.5% | -4%[46.1 µM]
COc1ccc(/C=C(\NC(=O)c2ccc(C)cc2)C(=O)NCCCn2ccnc2)cc1 | 51%[activator] | 1% | -3%[46.1 µM] | x | -2% | 1% | x | 1%[46.1 µM]

Pulled by compound from the list above (2):
SMILES | 2A StopGo | SARS PLP yeast | LASV entry inh | Cruzain inh noDet | RE007 growth inh | NS1 inh | Cruzain inh Det | MARV entry inh
O=C(Cn1nnc2ccccc21)c1ccccc1 | 36%[activator] | 4% | u | 2% | 2% | 5% | -2.0% | 37%
COc1ccc(NS(=O)(=O)c2cccc(C(=O)N3CCCCCC3)c2)cc1 | 19% | 4% | u | x | 11% | x | x | -6%

Compounds were not picked by outcome; about 4.5% have a hit in one of these screens.
